miR-21 reporter = raises the signal of a miR-21 reporter. 340,000 tested, under 10 active. Potency, µM (doses to about 38.3 µM), for the others: at the top dose reporter change, positive = more light. AID 2288. HeLa miR-21 FLuc reporter, luciferase, 48 h; active = well fitted rising curve with a large enough effect; inconclusive = small, poorly fitted or top-dose-only effect; inactive = no such curve, though single readings can be large or run the other way;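 note: % of control where 0% means no effect; miR-21 action dims this reporter so a rising signal means less miR-21 action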
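Compounds were titrated across several concentrations (up to approximately 40 uM) and incubated 48 hours with HeLa miR-21-FLuc reporter cells (miR-21 target sequence downstream of FLuc, endogenous miR-21). Readout was firefly luciferase luminescence after lytic detection reagent.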
Active calls of the source: *; ? = inconclusive; [ ] = another dose, or the depositor's remark. This is a subset; rates above refer to the full screens.

SMILES | miR-21 reporter
CCOc1ccc(S(=O)(=O)N(C(C)=O)c2ccc3oc(C)c(C(=O)OC)c3c2)cc1 | 29%
CCCn1c(CCC(=O)Nc2ccccc2OC)nc2cccnc21 | -9%
CCOC(=O)c1ccc(NC(=O)c2noc3c2CCCC3)cc1 | ?
COc1cc(C(=O)N(Cc2cccnc2)c2nc3cc(C)c(C)cc3s2)cc(OC)c1OC | 9%
CN(Cc1ccccc1)C(=O)C1CCN(S(=O)(=O)Cc2ccccc2)CC1 | 5%
CCn1c(=O)c2cc(C(=O)NCCCN3CCN(c4ccc(F)cc4)CC3)sc2c2ccccc21 | 3%
CCCCN(C)C(=O)CN1C(=O)CCn2nc(-c3cn(C)c4ccccc34)cc21 | -1%
CCOC(=O)c1ccccc1NC(=O)CSc1ccc(-c2cccs2)nn1 | 1%
Cc1cccc(C(=O)NCC(=O)OCc2cc(=O)n3nc(C)sc3n2)c1 | 1%
Cc1ccc(CN2CCC(CNC(=O)Nc3cccc(Cl)c3C)C2)cc1 (stereo unspecified) | 4%
COc1ccc(Cl)cc1S(=O)(=O)Nc1ccc2[nH]c(=O)[nH]c2c1 | 19%
Cc1nn(C)c2c1c(C(F)(F)F)cc(=O)n2CC(=O)NCc1ccc(OC(C)C)cc1 | 5%
CCOc1ccccc1CNC(=O)c1oc2c(c1C)-c1nn(Cc3cccc(Cl)c3)cc1CC2 | ?
Cc1ccc2ncc(C(=O)Nc3cccc(C(F)(F)F)c3)c(=O)n2c1 | -6%
Cc1cc(C)cc(NC(=O)C(=O)NC(C)c2ccccc2)c1 (stereo unspecified) | -10%
Cc1cccc(OCC(=O)Nc2ccc3c(c2)N(C)C(=O)c2ccccc2S3)c1 | ?
O=C(Nc1ccc(F)cc1)c1ccc(CN2CC(=O)N3CCCCC3C2=O)cc1 (stereo unspecified) | -4%
O=C(Cc1ccccc1F)N1CCC(c2nc3c(nnn3Cc3cccc(Cl)c3)c(=O)[nH]2)CC1 | -1%
Cc1ccc(C(CC(=O)Nc2ccc(F)c(Cl)c2)N2Cc3ccccc3C2=O)cc1 (stereo unspecified) | 2%
COc1ccc(CNC(=O)CCS(=O)(=O)c2cc(Br)cc3c2N(C(=O)C2CC2)CC3)cc1 | 0%
COc1cccc(CNC(=O)c2cc(=O)[nH]c3ccc(S(=O)(=O)N4CCCCC4)cc23)c1 | 0%
CC(=O)Nc1ccc(NC(=O)C(c2ccccc2)N2Cc3ccccc3C2=O)cc1 (stereo unspecified) | -2%
COc1ccc(NC(=O)Cn2c(=O)n(C(C)C)c(=O)c3oc4ccccc4c32)cc1Cl | 11%
COc1ccccc1CNS(=O)(=O)c1ccc2c(c1)CC(C)N2C(C)=O (stereo unspecified) | 3%
O=C(Cn1ncc2c3ccccc3n(Cc3cccc(Cl)c3)c2c1=O)NCCCN1CCCCC1 | -1%

Further records:
SMILES | miR-21 reporter
CCN(CCCNC(=O)CN1N=C(c2ccccc2)CCC1=O)c1ccccc1 | 5%
CC(Oc1ccccc1F)C(=O)Nc1ccc(-c2nc3ccccc3s2)cc1 (stereo unspecified) | -55%
CC(C)c1ccc(NS(=O)(=O)c2ccc3[nH]cc(C(=O)N4CCCC4)c(=O)c3c2)cc1 | -1%
CCC(=O)N1CCc2cc(Br)cc(S(=O)(=O)N3CCC(C(=O)Nc4cccc(C)c4)CC3)c21 | 29%
Cc1cccc(CCNC(=O)c2cc3ccccn3n2)c1 | -52%
O=C(Cc1ccccc1)NC1CC(=O)N(c2ccc3c(c2)OCCO3)C1 (stereo unspecified) | -1%
COc1ccc(C)cc1-n1nnc(C(=O)Nc2cccc(SC)c2)c1C | -4%
COc1cccc2c1cc1c(=O)n(CC(=O)NCc3ccco3)nc(C)n12 | -1%
CCN(c1ccccc1)S(=O)(=O)c1ccc(-c2cc(C)no2)s1 | 24%
COc1ccc(NC(=O)c2oc3ccccc3c2NC(=O)c2cc(C)cc(C)c2)c(OC)c1 | -2%
COc1ccc(-c2c(C#N)c(SCC(=O)Nc3cccc(Cl)c3)nc(C)c2C(=O)Nc2ccccc2)cc1OC | -2%
Cc1cc(-c2ccc(S(=O)(=O)Nc3cccc(Cl)c3C)cc2)on1 | 25%
CC(=O)c1cccc(NC(=O)CCn2nc(C)c(S(=O)(=O)N(C)C)c2C)c1 | 7%
COc1ccccc1CNC(=O)CSc1ncc2c(n1)-c1cc(Cl)ccc1N(Cc1ccccc1)S2(=O)=O | 1%
COC(=O)c1sccc1S(=O)(=O)N1CCN(c2cccc(C)c2C)CC1 | 5%
COc1ccc(CCNS(=O)(=O)c2cc(-c3onc(C)c3C)ccc2OC)cc1OC | -5%
CC(NC(=O)Cn1c(=O)oc2cc(S(=O)(=O)N3CCCCCC3)ccc21)c1ccccc1 (stereo unspecified) | 6%
O=C(OCc1cccc(C(F)(F)F)c1)c1ccc(-c2nnn(Cc3ccc(F)cc3)n2)cc1 | 4%
CCOc1ccc(CNC(=O)c2cnc3sc(N4CCOCC4)nn3c2=O)cc1OC | 1%
CCOc1ccc(/C=C/c2nc(C#N)c(NC(C)CC)o2)cc1 (stereo unspecified) | 3%
CCOc1ccc(NC(=O)CCc2c(C)nn(-c3ccc(N4CCCC4)nn3)c2C)cc1 | -25%
Cc1ccc(-n2ncc3c(N4CCCCCC4)ncnc32)cc1 | ?
CCOc1ccc(C2c3c(-c4cc(C)ccc4O)n[nH]c3C(=O)N2Cc2cccnc2)cc1OCC (stereo unspecified) | -26%
O=C(CC1NCCNC1=O)Nc1ccc(F)c(Cl)c1 (stereo unspecified) | -1%
COc1cccc(N2C(=O)CSC23C(=O)N(Cc2ccccc2)c2ccccc23)c1 (stereo unspecified) | -1%

The final six records of the section above come first, to join the parts.
SMILES | miR-21 reporter
CCOc1ccc(/C=C/c2nc(C#N)c(NC(C)CC)o2)cc1 (stereo unspecified) | 3%
CCOc1ccc(NC(=O)CCc2c(C)nn(-c3ccc(N4CCCC4)nn3)c2C)cc1 | -25%
Cc1ccc(-n2ncc3c(N4CCCCCC4)ncnc32)cc1 | ?
CCOc1ccc(C2c3c(-c4cc(C)ccc4O)n[nH]c3C(=O)N2Cc2cccnc2)cc1OCC (stereo unspecified) | -26%
O=C(CC1NCCNC1=O)Nc1ccc(F)c(Cl)c1 (stereo unspecified) | -1%
COc1cccc(N2C(=O)CSC23C(=O)N(Cc2ccccc2)c2ccccc23)c1 (stereo unspecified) | -1%
Cc1ccc(-n2ncc3c(NC4CCCCC4)ncnc32)cc1Cl | -52%
CN(C)c1ccc(CNC(=O)c2ccc(Cn3c(SCc4ccccc4)nc4cccnc43)cc2)cc1 | -10%
CCc1ccc(CN(C(=O)c2ccc(OC)cc2)C2CCS(=O)(=O)C2)cc1 (stereo unspecified) | -13%
Cc1cccc(CN2C(=O)c3ccccc3Sc3ccc(C(=O)N4CCCC4)cc32)c1 | 10%
COc1ccccc1-c1cc(C(=O)Nc2cc(Cl)ccc2O)no1 | -21%
Cc1cc(C)c(NC(=O)c2oc3c(c2C)-c2[nH]ncc2CC3)c(C)c1 | -24%
CC(OC(=O)c1ccc(NC(=O)CC#N)cc1)C(=O)Nc1ccc(Oc2ccccc2)cc1 (stereo unspecified) | -8%
O=C(NCc1ccco1)c1ccc2c(c1)N(Cc1ccccc1)C(=O)c1ccccc1S2 | -6%
Fc1cccc(CSc2ccc(-c3cccs3)nn2)c1 | -65%
COc1ccc(CNC(=O)CSc2ncc3c(n2)-c2cc(Cl)ccc2N(Cc2ccccc2)S3(=O)=O)cc1OC | 0%
COc1ccc([C@]23Cc4ccccc4C(O2)C2=C(CC4(CCCCC4)OC2=O)O3)cc1 | -51%[7.66 µM]
COc1cc(/C=C(\C#N)c2nc3ccc(C)cc3[nH]2)ccc1OC(C)C | -38%
CCCOc1ccc(C2C(=O)N(C3CCCCC3)CC(=O)N2CCC2=CCCCC2)cc1OC (stereo unspecified) | -3%
Cc1ccc(OCCn2c(CNc3ccccc3C)nc3ccccc32)cc1 | -36%
O=C(Cc1ccc(NC(=O)N2CCCCc3ccccc32)cc1)NCc1ccccc1 | 21%
Cc1cc(F)ccc1NC(=O)CN(C)S(=O)(=O)c1ccc(C(=O)N2CCOCC2)s1 | 3%
COc1ccccc1CNC(=O)CCCCn1c(=O)c2ccccc2n(Cc2c(C)cc(C)cc2C)c1=O | 0%
COc1cccc(NC(=O)CSCc2cc(=O)c3ccc(C)c(C)c3[nH]2)c1 | -2%
Cc1ccc(-c2cn3cccnc3n2)cc1NC(=O)Nc1ccc(F)cc1 | -7%
COc1ccccc1Nc1cc(C)nc2nc(-c3ccccc3)nn12 | 0%
CC(C)(C)C1CCc2c(sc(NC(=O)c3ccccc3F)c2C(=O)NCc2ccco2)C1 (stereo unspecified) | 5%
COc1ccc(OC)c(NC(=O)c2cn3c4c(ccc(Cl)c4c2=O)OC(C)C3)c1 (stereo unspecified) | 0%
Cc1ccc(CNC(=O)Cn2ccn(-c3ccc(F)c(F)c3)c(=O)c2=O)cc1 | -22%
CCCN(CCC)C(=O)c1nn(C)c2c1CSc1ccc(C)cc1-2 | -2%
CC(C)(C)C1CCc2c(sc(NC(=O)c3ccco3)c2C(=O)Nc2ccccc2Cl)C1 (stereo unspecified) | 6%

Other records:
SMILES | miR-21 reporter
Cn1c(C(=O)NCCc2ccccc2)cc2sc(Cl)cc21 | 20%
COc1ccc(NC(=O)c2c(NCc3cccs3)sc3c2CCCC3)c(OC)c1 | ?
O=C(c1cc2ccc3cccnc3c2[nH]1)N1CCN(c2cccc(C(F)(F)F)c2)CC1 | -13%
Cc1cc(=O)n(Cc2ccc(F)cc2Cl)c2c1c(C)nn2-c1ccccc1 | -5%
Cc1nc2c(c(C)nn2-c2ccccc2)c(C)c1CCC(=O)Nc1ccc(F)cc1 | 28%
CC(=O)Nc1ccc(NC(=O)c2cnn(-c3ccccc3)c2C2CCN(C(=O)OC(C)(C)C)CC2)cc1 | -2%
Cc1ccccc1NS(=O)(=O)c1ccc2[nH]cc(C(=O)N3CCCC3)c(=O)c2c1 | 0%
COc1ccc(Cl)cc1NC(=O)CSc1nccn1Cc1ccco1 | -4%
Cc1noc(Cn2c(=O)c3cc4c(cc3n(CC(=O)Nc3ccccc3F)c2=O)OCO4)n1 | -3%
COC(=O)c1cc2oc3ccccc3c2n1CC(=O)Nc1ccc(C)cc1C | -14%
O=C(O)c1ccc2c(c1)N(Cc1ccc(F)cc1Cl)C(=O)c1ccccc1S2 | -1%
O=C(Nc1ccc(F)cc1F)c1cc2ccc3cccnc3c2[nH]1 | -45%
CCn1c(=N)n(CC(O)COc2ccccc2)c2ccccc21 (stereo unspecified) | 0%
CC1CCCCN1c1nc(-c2ccc(C(C)(C)C)cc2)nc2ccccc12 (stereo unspecified) | -33%
Cc1ccc2c(c1)cc1c(=O)n(CC(=O)N3CCCCC3)nc(C)n12 | 2%
COc1ccc(C2c3c(oc4cc(C)cc(C)c4c3=O)C(=O)N2Cc2ccco2)cc1OC (stereo unspecified) | 1%
Cn1c(=O)nc2n(-c3ccc(Br)cc3)c3cccc(Cl)c3cc-2c1=O | 4%
CCn1c(=NC(=O)c2ccc(S(=O)(=O)N3CCCCC3)cc2)sc2cccc(OC)c21 | ?
c1ccc(N2CCN(Cc3nnc(-c4ccc5c(c4)OCO5)o3)CC2)cc1 | -7%
CCc1cccc(C)c1NC(=O)C1CCN(S(=O)(=O)c2cccc3nonc23)CC1 | -7%
Cc1ccc(CNC(=O)c2cc(-c3ccc(C)c(C)c3)nc3ccccc23)cc1 | -3%
Cc1ccc(N2CC(NC(=O)C(=O)c3c[nH]c4ccccc34)CC2=O)cc1 (stereo unspecified) | 3%
COc1ccc(-c2nn3c(-c4ccc(OC)cc4)nnc3c3ccccc23)cc1 | 0%
COc1ccccc1Nc1cc(C(=O)NCCCN(C)C2CCCCC2)c2ccccc2n1 | 0%
Cn1c(C(=O)Nc2ccc(OC(F)(F)F)cc2)cc2c(=O)n3ccccc3nc21 | -3%

Continuation:
SMILES | miR-21 reporter
CCOC(=O)CSc1nc(-c2ccc(C)cc2C)cc(-c2ccccc2)c1C#N | 8%
CCc1ccccc1NC(=O)CSc1ncc(S(=O)(=O)c2ccccc2)c(N)n1 | -6%
COc1cccc(-n2c(SCc3ccccc3C)nc3c([nH]c4ccccc43)c2=O)c1 | 23%
COc1ccc(S(=O)(=O)c2cn(C)c3cc(N4CCCC4)c(F)cc3c2=O)cc1 | -10%
CCc1ccccc1Nc1nn2c(=O)c3ccc(C(=O)NCc4ccccc4Cl)cc3nc2s1 | 15%
O=C(COc1ccccc1)NCCc1csc(-c2ccc(F)cc2)n1 | -6%
CC(=O)N1c2ccc(S(=O)(=O)NCC3CCC(C(=O)Nc4cccc(F)c4)CC3)cc2CC1C (stereo unspecified) | ?
C=CCc1cccc2cc(C(=O)NCCc3c(C)[nH]c4c(C)cccc34)c(=O)oc12 | -8%
Cc1cc(F)ccc1NC(=O)Cn1c(=O)ccc2cc(S(=O)(=O)N3CCC(C)CC3)ccc21 | 0%
CCCCc1nn2c(=O)cc(COC(=O)c3ccccc3NC(=O)C(C)(C)C)nc2s1 | 0%
CC(C)c1cc(C(=O)NCc2ccc(F)cc2)no1 | -51%

An excerpt of these results, as labelled records.
> Cn1c(=O)nc2n(-c3ccc(Br)cc3)c3cccc(Cl)c3cc-2c1=O
  miR-21 reporter: 4%
> CCn1c(=NC(=O)c2ccc(S(=O)(=O)N3CCCCC3)cc2)sc2cccc(OC)c21
  miR-21 reporter: ?
> c1ccc(N2CCN(Cc3nnc(-c4ccc5c(c4)OCO5)o3)CC2)cc1
  miR-21 reporter: -7%
> CCc1cccc(C)c1NC(=O)C1CCN(S(=O)(=O)c2cccc3nonc23)CC1
  miR-21 reporter: -7%

High-throughput results as filed in PubChem BioAssay.
